# CDC25B-CDK2 inh: human CDC25B-CDK2/CyclinA binding inhibition; HTRF CDC25B-CDK2/CyclinA binding, anti-His/anti-Flag; active compounds read high; z-score (no concentration beside the values); hit rate 0.72% among 94,000; AID 1259370;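 also: score is relative to mean and SD of negative controls; strong numbers were not always called active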
# TAR Tat displ: HIV-1 TAR-Tat binding disruption; hit rate 0.6% among 100,000; AID 1259389; HIV-1 TAR RNA, Tat peptide displacement FRET; active compounds read high; z-score (no concentration beside the values);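 also: score is relative to mean and SD of negative controls; some compounds called inactive have numbers as strong as hits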
# * = called active by the depositor; / = no result given.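 The calls were made as follows: active = z-score from 3 up in half or more of its runs; inactive = the rest.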
SMILES,CDC25B-CDK2 inh,TAR Tat displ
O=C(Nc1ccc(O)cc1)c1c(O)c2c([nH]c1=O)CCCC2,/,2.8
C=CCOc1ccc(C2c3c(-c4cc(C)ccc4O)n[nH]c3C(=O)N2Cc2ccco2)cc1OCC (stereo not drawn),0.32,-1
Clc1ccc2c(c1)nc1n2CCN(Cc2ccccc2)C1,-0.85,0.03
O=C1C2ON(c3ccccc3)C(c3ccccc3O)C2C(=O)N1c1ccc(F)cc1 (stereo not drawn),0.65,1.3
O=c1c(Cl)c(NCCc2ccccc2)cnn1-c1nc2ccccc2o1,-2,-0.21
Cc1ccc(Cn2c(CN)nc3cccnc32)cc1,-1.5,0.17
CCc1cc2c(=O)c(-c3nc4ccccc4s3)coc2c(CN2CCCCC2)c1O,-2.5,/
Cc1ccc2c(c1)-c1c(c(C(=O)NCc3ccc4c(c3)OCO4)nn1C)CS2,/,0.82
CN1CCN(CCNC(=O)C2CCN(c3ccc(F)cc3)C2=O)CC1 (stereo not drawn),/,0.66
Cc1cc2c(cc3c(SCc4nc(-c5ccccc5F)oc4C)nncn32)o1,/,2.5
CC(C)CN(CCS(=O)(=O)N1CCNCC1)S(=O)(=O)c1ccc(C2CCCCC2)cc1,/,1.2
CSc1nsc(SCC(=O)N2CCOCC2)n1,-1.1,1.8
O=S(=O)(NCc1ccco1)c1ccc(-c2cnc(C3CC3)o2)cc1,/,0.45
CCCc1nc(C(C)(C)O)c(C(=O)OCc2oc(=O)oc2C)n1Cc1ccc(-c2ccccc2-c2nn[nH]n2)cc1,/,0.52
COCCOC(=O)C1=C(C)NC2=C(C(=O)CC(C)(C)C2)C1c1cc(OC)ccc1OC (stereo not drawn),-1.6,0.52
Cn1c(=O)oc2cc(S(=O)(=O)N3CCCC(C(=O)NCCN4CCCCCC4)C3)ccc21 (stereo not drawn),0.76,/
Cc1c(Cl)cccc1NS(=O)(=O)c1ccc(-c2ccc(=O)[nH]n2)o1,/,1.1
CCOC(=O)CSC(=NCc1ccccc1)NNC(=O)c1c(C)nc2cc(C)ccn12,-1.4,/
O=C(c1cccc(CN2CCN(Cc3ccccc3)CC2)c1)N1CCC(O)CC1,-0.19,/
O=C(CN1C(=O)COc2ccc(S(=O)(=O)NC3CCCC3)cc21)N1CCc2ccccc21,/,0.5
Cc1ccccc1-c1noc(-c2nnn(-c3ccc(F)cc3)c2N)n1,/,-0.42
Cc1ccc(C(=O)c2cnc3cc4c(cc3c2N2CCOCC2)OCO4)cc1C,1.8,8.8*
CCC(=O)N1c2ccccc2-c2nnc(SC)nc2OC1c1cccn1C (stereo not drawn),-1.2,-1.6
O=C(NC1CCCc2ccccc21)C1CCC(CNc2c(N3CCCCC3)c(=O)c2=O)CC1 (stereo not drawn),-0.95,0.19
COc1ccc(OC)c(N2C(=O)COc3c(OC)cccc3C2C(=O)NC2CCCC2)c1 (stereo not drawn),/,0.47
CCOC(=O)N1CCN(c2c(NCCN3CCN(c4ccccc4F)CC3)c(=O)c2=O)CC1,-2.4,2
O=C(Cn1cnc(S(=O)(=O)N2CCc3ccccc32)c1)Nc1ccccc1,/,-0.69
O=C1NC(c2cccc(Br)c2)C(C(=O)c2cccs2)C(O)(C(F)(F)F)N1 (stereo not drawn),-3.9,/
COc1ccc(-c2c(Nc3ccc(OC)c(OC)c3)c(=O)c2=O)cc1,/,1.7
N#Cc1c(S/C=C(\O)c2cc3ccccc3o2)nc2c(c1C(F)(F)F)CCCC2,0.23,/
O=C(Nc1noc2ccccc12)c1ccc(CS(=O)(=O)Cc2ccccc2F)o1,-0.61,0.01
CCn1c(CN2CCC(C)CC2)nc2c1c(=O)n(C)c(=O)n2C,-1.8,/
COc1ccc(-c2cc(N)n(S(=O)(=O)c3ccccc3)n2)c(OC)c1,-2.4,2.9
CCCNS(=O)(=O)c1ccc2c(c1)NC(=O)CO2,/,0.97
Cc1ccc(Cn2c(SCc3ccc(C(=O)O)cc3)nc3cccnc32)cc1,-0.67,-0.67
O=C(O)CCC(=O)N1N=C(c2cccs2)CC1c1ccccc1F (stereo not drawn),-1,-1.3
COc1ccc(NC2CC(=O)N(c3ccc(OC)cc3)C2=O)cc1 (stereo not drawn),0.55,0.44
O=C(NCc1ccncc1)C(=O)NCC(c1ccco1)S(=O)(=O)c1ccc(Cl)cc1 (stereo not drawn),/,-0.13
Nc1c(-c2ccccc2)nnn1-c1ccccc1,-2,-0.6
COC(=O)c1cc(COc2ccc3c(c2)oc(=O)c2cc(OC)ccc23)c(C)o1,-0.99,/
COc1ccccc1N1CCN(S(=O)(=O)c2ccc(S(N)(=O)=O)cc2)CC1,-0.49,-0.31
CCOC(=O)c1cc(-c2ccc(S(=O)(=O)N3CCCCC3)s2)on1,/,1.3
COc1ccc(/C(O)=C2\C(=O)C(=O)N(CCN3CCOCC3)C2c2ccc(Cl)cc2)cc1 (stereo not drawn),-1.3,0.71
Cc1ccc(C2C(C#N)=C(N)OC3=C2C(=O)CCC3)cc1 (stereo not drawn),-0.64,/
COc1cc(C2C(C#N)=C(N)Oc3cc(O)ccc32)ccc1OCc1ccc(F)cc1 (stereo not drawn),-1.2,-1.2

# Shown with values under each structure: two of the compounds above
# Under each structure: CDC25B-CDK2 inh	TAR Tat displ
O=C(c1cccc(CN2CCN(Cc3ccccc3)CC2)c1)N1CCC(O)CC1
→ -0.19	/
O=C(CN1C(=O)COc2ccc(S(=O)(=O)NC3CCCC3)cc21)N1CCc2ccccc21
→ /	0.5

# Some of the entries so far, bar-delimited.
SMILES | CDC25B-CDK2 inh | TAR Tat displ
COc1ccc(NC2CC(=O)N(c3ccc(OC)cc3)C2=O)cc1 (stereo not drawn) | 0.55 | 0.44
O=C(NCc1ccncc1)C(=O)NCC(c1ccco1)S(=O)(=O)c1ccc(Cl)cc1 (stereo not drawn) | / | -0.13

# 6 of the compounds above, bar-delimited.
smiles | CDC25B-CDK2 inh | TAR Tat displ
O=C(Nc1ccc(O)cc1)c1c(O)c2c([nH]c1=O)CCCC2 | / | 2.8
C=CCOc1ccc(C2c3c(-c4cc(C)ccc4O)n[nH]c3C(=O)N2Cc2ccco2)cc1OCC (stereo not drawn) | 0.32 | -1
Clc1ccc2c(c1)nc1n2CCN(Cc2ccccc2)C1 | -0.85 | 0.03
O=C1C2ON(c3ccccc3)C(c3ccccc3O)C2C(=O)N1c1ccc(F)cc1 (stereo not drawn) | 0.65 | 1.3
O=c1c(Cl)c(NCCc2ccccc2)cnn1-c1nc2ccccc2o1 | -2 | -0.21
Cc1ccc(Cn2c(CN)nc3cccnc32)cc1 | -1.5 | 0.17

# Further results follow:
SMILES,CDC25B-CDK2 inh,TAR Tat displ
COC(=O)Cc1c(-c2ccccc2)c2cc(Br)ccc2[nH]c1=O,0.44,1.5
CC(C)Oc1cccc(N/C=C(\C#N)S(=O)(=O)c2ccc(Cl)cc2)c1,-1.2,/
Cc1cc(S(=O)(=O)NN(C)c2cccc(Cl)c2C#N)cc(C)c1F,-2.4,/
COC(=O)c1cc(OC)c(OC)cc1NC(=O)Nc1cc(Cl)cc(Cl)c1,-2,/
CCOC(=O)C(CC)Oc1ccc2c(=O)c(Oc3ccccc3Br)coc2c1 (stereo not drawn),0.85,0.12
COC(=O)c1ccc(C2NC(=O)c3[nH]nc(-c4cccc(OC)c4)c32)cc1 (stereo not drawn),0.73,-0.2
CCOC(=O)C1CCN(S(=O)(=O)c2ccc3c(c2)CC(C)N3C(=O)C2CC2)CC1 (stereo not drawn),/,1.2
OCC#CCSc1ncnn1-c1ccccc1,-0.99,1
CC1CCC(c2nnc(-c3ccc4c(c3)OCO4)o2)CC1 (stereo not drawn),-0.89,0.92
CCOC(=O)c1c(C)oc2nc(C)nc(N3CCN(C4CCCCC4)CC3)c12,/,-0.46
CC(=O)Nc1ccccc1OCC(O)CS(=O)(=O)Cc1ccc(Cl)cc1 (stereo not drawn),-1.9,/
C=CCOC(=O)Oc1ccc2c(=O)c(Oc3ccc(CC)cc3)coc2c1,-0.02,-0.23
Cc1ccc(Nc2nc(NCCCO)nc3c2cnn3C)cc1Cl,/,2.3
Cc1ccc(-c2nc(N)n(C(=O)c3cccs3)n2)cc1C,0.05,-1.6
CC(CC(=O)NC(C)(C)C)S(=O)(=O)c1ccc2c(c1)CCN2C(=O)C1CC1 (stereo not drawn),/,0.17
Cc1cc2c(cc1S(=O)(=O)C(C)CC(=O)NC1CCCCC1)OCC(=O)N2 (stereo not drawn),/,0.58
COc1cccc(C2c3c(-c4ccccc4O)n[nH]c3C(=O)N2Cc2ccco2)c1 (stereo not drawn),0.06,1
CC(C)(C)OC(=O)c1cccc(C(=O)O)n1,-11,1.2
CCOC(=O)C1CCCN(Cc2oc(CO)cc(=O)c2O)C1 (stereo not drawn),1.5,/
CCOC(=O)C1=C(C)NC2=C(C(=O)CC(C)(C)C2)C1c1ccc(OCC)cc1 (stereo not drawn),-1.6,1.6
O=C(NCC1OCCCN1S(=O)(=O)c1ccc2c(c1)OCCO2)C(=O)NC1CCCCCC1 (stereo not drawn),-1.2,/
CCOC(=O)N1CCN(C(=O)CCCc2nnc3n(CC(C)C)c(=O)c4sccc4n23)CC1,-1.6,0.75
CSc1nc(C(N)=O)cc(=O)[nH]1,-1.6,/
O=C1c2oc3ccc(F)cc3c(=O)c2C(c2cccc(O)c2)N1Cc1ccc(F)cc1 (stereo not drawn),0.87,2.5
CCc1cc2c(Sc3nnc(N)s3)ncnc2s1,-2.4,/
CN1C(=O)C(C)(C)c2cc(S(=O)(=O)NCC3CCC(C(=O)NC4CCCC4)CC3)ccc21 (stereo not drawn),/,2.3
O=S(=O)(Cc1noc(-c2ccno2)n1)Cc1ccco1,-0.68,/
CC(C)(C)OC(=O)C(C)(C)S(=O)(=O)c1ccc(Cl)cc1,0.81,/
CC1CCN(C(=O)Cn2cc(SCC(=O)N3CCCc4ccccc43)c3ccccc32)CC1,/,-0.85
CCOC(=O)C1=C(CC)NC2=C(C(=O)CC(C)(C)C2)C1c1ccccc1 (stereo not drawn),-2.3,0.47
CCN(CC)CCn1c(C)c(C)c2c1ncn1nc(-c3ccco3)nc21,-2.2,1.1
CC1CCC2C(=O)N(c3ccc(Cc4ccncc4)cc3)C(=O)C2C1 (stereo not drawn),-1.9,/
Cc1ccc(C)c(NS(=O)(=O)c2cc3c(cc2C)NC(=O)CO3)c1,/,2.3
CCCc1c(C)nc2ncnn2c1Nc1ccccc1,-0.77,1.8
O=c1[nH]c(NCc2ccco2)nnc1Cc1ccccc1,0.27,/
O=C(O)c1ccccc1C(=O)Nc1cc(Cl)c(Cl)cc1Cl,5.4,/
CC(=O)Nc1sc2c(c1C(=O)Nc1ccc(Br)cc1)CCCC2,-1.5,/
Clc1ccccc1-n1cc(-c2ccccc2)c2c(NCc3ccco3)ncnc21,1,0.53
CCCN1C(=O)c2cc(C(=O)NCCC(C)C)nn2CC1(C)C(=O)NC1CCCC1 (stereo not drawn),/,2.3
Cc1ccc(NS(=O)(=O)c2ccc3c(c2)C(C)(C)C(=O)N3)cc1Cl,/,0.58
O=c1ccc(-c2ccc(S(=O)(=O)NCc3cccs3)s2)n[nH]1,/,0.17
COc1ccccc1/C=C/c1nc(C#N)c(N2CCN(c3ccccc3)CC2)o1,-0.38,1.1
Cc1ccc([C@H]2C(C#N)=C(N)Oc3cc(C)oc(=O)c32)o1,-0.62,/
Cc1ccc(-n2nnc(-c3nc(-c4ccc(F)cc4)no3)c2N)cc1C,/,0.92
Cn1nc(-c2ccccc2)cc1N,-1.4,/

# Arranged by length of the SMILES (ascending): some entries from above
SMILES,CDC25B-CDK2 inh,TAR Tat displ
CC1CCC2C(=O)N(c3ccc(Cc4ccncc4)cc3)C(=O)C2C1 (stereo not drawn),-1.9,/
Cc1ccc([C@H]2C(C#N)=C(N)Oc3cc(C)oc(=O)c32)o1,-0.62,/
Clc1ccccc1-n1cc(-c2ccccc2)c2c(NCc3ccco3)ncnc21,1,0.53

# Other results follow.
SMILES,CDC25B-CDK2 inh,TAR Tat displ
CC(C)(C)c1cc(C(=O)NC2CC2)n(Cc2ccc(F)cc2)n1,-2.1,/
O=C(CSc1nc(-c2ccccc2)nc2cc(=O)[nH]n12)Nc1ccc(Cl)cc1,/,0.68
COc1ccccc1C1C(C(=O)OC2CCCCC2)=C(C)NC2=C1C(=O)CC(C)(C)C2 (stereo not drawn),-2,0.16
COc1ccc(CN2COc3ccc(Cl)cc3C2)cc1,0.9,0.08
CCOC(=O)C1=C(C)OC23OC(N)=C(C#N)C12C(=O)c1ccccc13 (stereo not drawn),1.1,/
O=C1CC(Nc2ccc(Oc3ccccc3)cc2)C(=O)N1c1ccc(Cl)cc1 (stereo not drawn),-0.4,-1.2
CN1CCN(C(=O)CN2C(=O)CSc3ccc(S(=O)(=O)N4CCCC4)cc32)CC1,/,0.13
CC(C(=O)N1CCN(C2CCCCC2)CC1)n1sc2ccccc2c1=O (stereo not drawn),-2.2,2.4
Cc1ccc(Cl)cc1N1CCN(c2nc3ccccc3n3c(C)nnc23)CC1,-2.2,1.5
O=C(CSC1CN(C(c2ccccc2)c2ccccc2)C1)NNC(=O)c1cccs1,-0.82,/
CCCNC(=O)c1oc2c(c1C)-c1[nH]ncc1CC2,-1.4,-0.74
COc1ccc(C2N=C(N)Nc3nc4ccccc4n32)cc1 (stereo not drawn),0.37,-0.56
Cc1cc(C)cc(NC(=O)N2CCC3(CC2)Nc2cc(F)ccc2-n2cccc23)c1,/,-0.26
CC(C(=O)Nc1ccc(F)c(F)c1)N1Cc2ccccc2C1=O (stereo not drawn),/,0.32
O=S1(=O)CCC(S(=O)(=O)N2CCN(Cc3ccccc3)CC2)C1 (stereo not drawn),-3.1,1
COCCCN1CCn2c(nc3cc(NC(=O)NC4CCCCC4)ccc32)C1,0.2,-8.9
CC(C)CC(=O)OCc1cc(=O)n2nc(CC(C)C)sc2n1,/,0.7
CCOC(=O)CCCc1c[nH]c2ccccc12,/,3.3
NCCCC(N)(C(=O)O)C(F)F (stereo not drawn),-2.1,/

# Screening results as filed in PubChem BioAssay.
